Compound activity (PubChem BioAssay)
KAT2A inh – blocks human GCN5L2 histone acetyltransferase | Q92830 | GCN5L2 HAT assay, ThioGlo1 CoA-SH fluorescence | Potency, µM (highest dose often 58.9 µM), inactives show at the top dose activity change, negative = inhibition, hits mostly inhibitors | actives 0.21% (n = 390,000)
Target sequence (Q92830 whole entry, looked up): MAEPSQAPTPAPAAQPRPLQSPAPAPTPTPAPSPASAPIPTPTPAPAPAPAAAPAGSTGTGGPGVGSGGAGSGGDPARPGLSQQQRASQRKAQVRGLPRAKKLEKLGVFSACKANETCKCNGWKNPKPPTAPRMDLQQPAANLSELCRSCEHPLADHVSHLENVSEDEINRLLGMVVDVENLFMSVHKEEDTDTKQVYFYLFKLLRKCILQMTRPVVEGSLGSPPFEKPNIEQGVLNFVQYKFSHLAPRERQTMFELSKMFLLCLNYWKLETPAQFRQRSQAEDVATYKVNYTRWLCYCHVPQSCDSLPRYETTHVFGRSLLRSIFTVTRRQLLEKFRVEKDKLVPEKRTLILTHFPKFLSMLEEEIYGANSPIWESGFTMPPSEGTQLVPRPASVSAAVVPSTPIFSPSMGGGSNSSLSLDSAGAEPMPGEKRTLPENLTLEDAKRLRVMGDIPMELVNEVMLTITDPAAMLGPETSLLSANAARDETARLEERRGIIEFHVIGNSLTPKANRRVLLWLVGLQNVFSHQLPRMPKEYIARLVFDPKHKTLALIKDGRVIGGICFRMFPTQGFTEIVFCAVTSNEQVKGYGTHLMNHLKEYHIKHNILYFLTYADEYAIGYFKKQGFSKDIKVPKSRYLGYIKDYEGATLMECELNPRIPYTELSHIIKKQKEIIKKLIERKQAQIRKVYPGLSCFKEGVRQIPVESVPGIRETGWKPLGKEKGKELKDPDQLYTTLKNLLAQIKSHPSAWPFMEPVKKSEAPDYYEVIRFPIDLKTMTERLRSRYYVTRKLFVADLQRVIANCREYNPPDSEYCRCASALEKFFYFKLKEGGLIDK
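Free CoA generated was detected with ThioGlo1 (50uM) fluorescence at Ex340nm/Em540nm, read immediately and after 20 min at room temperature. Enzyme, 20 nM in HEPES pH 7.5 buffer, saw compounds 15 min before adding 75uM H3(1-25) peptide and 70uM acetyl-CoA.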
DT40 TDP1 CPT – growth inhibition of DT40 Tdp1-/-;hTDP1 cells with camptothecin (screen for TDP1 inhibitors); Potency, µM (series often up to 46.2 µM), inactives show at the highest dose activity change, negative = growth inhibition, usual class: inhibitors; chicken DT40 Tdp1-/-;hTDP1 cells + 20 nM CPT, ATP luminescence, 48 h; AID 686979; actives 12% (n = 420,000); note: nearly all actives have a fitted effect of over 55% in size
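Cell growth measured by CellTiter-Glo luminescence after a minimum 48 h, 37 C compound exposure with 20 nM CPT in Tdp1-knockout DT40 cells stably expressing hTDP1, seeded 400/well; qHTS titration format.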
An asterisk follows results filed as active; u = inconclusive; x = no result given; & = joins results of further samples. Calls come from the whole dose curve; as a rule, active = well fitted curve in the direction sought with a large enough effect; inconclusive = small, poorly fitted or top-dose-only effect, or another doubt; inactive = no such curve, though single readings can be large; an effect the other way counts as inactive or inconclusive. % is set by controls: 0 for no effect and ±100 for the full control effect; potency is the fitted concentration of half-maximal effect. This is a subset; most or all hits stand in other tables.

No.	mol	KAT2A inh	DT40 TDP1 CPT
1	c1ccc(-c2nc(NCCCn3ccnc3)c3ccccc3n2)cc1	-1%	1%
2	COc1ccc(C(CNC(=O)c2cccc(S(=O)(=O)NCc3ccccc3)c2)N(C)C)cc1 (stereo unspecified)	-2%	u
3	Cc1cccc(N=Cc2c(O)cc(C)oc2=O)c1	-3%	-5%
4	Cc1nc(NC(=O)c2ccc(-c3cc4ccccc4oc3=O)cc2)ccc1Br	-5%	-24%
5	COc1cc(/C=C/C(=O)OCC(=O)NC2CC2)cc(OC)c1OC	-8%	5%
6	O=C(Nc1cc2c3c(c1)CC(=O)N3CCC2)c1c(F)cccc1F	-1%	-1%
7	Cc1ccc(F)cc1NC(=O)/C=C/c1ccc(S(=O)(=O)N2CCOCC2)cc1	-1%	u
8	CCN(CC)S(=O)(=O)c1ccc(/C=C/C(=O)Nc2ccc(F)cc2F)cc1	-13%	u
9	Cc1ccc(C(c2c(C)n(C)n(-c3ccccc3)c2=O)c2c(C)n(C)n(-c3ccccc3)c2=O)s1	0%	-16%
10	CCn1c(NC(=O)c2nn(C)cc2Br)nc2ccccc21	0%	u
11	COc1ccc(N2CCN(C(CNS(=O)(=O)c3ccccc3)c3ccccc3)CC2)cc1 (stereo unspecified)	-10%	u
12	CCOC(=O)c1cc(-c2c(Cl)cccc2Cl)no1	-10%	4%
13	NC(=O)c1cccc(-c2cccc(OC(=O)NC3CCCCC3)c2)c1	-5%&-6%	-21%
14	CC(C)N(C)Cc1nnnn1CC(=O)N(C)Cc1cccc(Cl)c1	-12%	-16%
15	COc1ccc2oc(=Nc3cc(F)ccc3F)c(C(N)=O)cc2c1	-9%	4.1µM*
16	NS(=O)(=O)c1ccc(CCNC(=O)/C=C/c2ccc(S(=O)(=O)N3CCOCC3)cc2)cc1	x	3%
17	Cc1ccc(S(=O)(=O)N(CC(=O)N2CCOCC2)c2ccc(Br)cc2)cc1	2%	-5%
18	CCOC(=O)c1nnc2cc(-c3ccc(Br)cc3)nn2c1C	-3%	-18%
19	Nc1c(C(=O)c2ccc(Cl)cc2)sc2c1c(=O)[nH]c(=O)n2-c1ccccc1	3%	14%
20	CCC(c1nnnn1CS(=O)(=O)c1ccc(C)cc1)N1CCC(C(N)=O)CC1 (stereo unspecified)	-4%	3%
21	CCCCn1c(N)c(N(CC(C)C)C(=O)CCNC(=O)c2ccc(Cl)cc2)c(=O)[nH]c1=O	-3%	3%
22	C=CCn1c(CCNC(=O)c2cccs2)nnc1SCC(=O)c1cccc([N+](=O)[O-])c1	-10%	-5%
23	Cc1cc(C)nc(N2CCN(CC(=O)NCc3ccccc3)CC2)n1	2%	-24%
24	COc1ccc(OC)c(C2C(C(C)=O)=C(O)C(=O)N2CCN2CCOCC2)c1 (stereo unspecified)	-6%	1%
25	Cc1cccc(N2C(=N)SCC2=O)c1C	-4%	-22%

2 records drawn at random from those above, as already listed:
No.	mol	KAT2A inh	DT40 TDP1 CPT
24	COc1ccc(OC)c(C2C(C(C)=O)=C(O)C(=O)N2CCN2CCOCC2)c1 (stereo unspecified)	-6%	1%
21	CCCCn1c(N)c(N(CC(C)C)C(=O)CCNC(=O)c2ccc(Cl)cc2)c(=O)[nH]c1=O	-3%	3%

Remaining list, next part
No.	mol	KAT2A inh	DT40 TDP1 CPT
26	COc1ccc(OC)c(CNC(=O)C2CCCN(c3ncnc4onc(-c5ccc(F)cc5)c34)C2)c1 (stereo unspecified)	3%	4%
27	O=C1Nc2ccccc2N(O)N1c1ccc(Cl)c(Cl)c1	-4%	2%
28	CCOC(=O)C1CCN(C(=O)c2ccc3c(c2)NC(=O)/C(=C\c2cccc(C)c2)S3)CC1	-12%	u
29	Fc1ccc(-n2ncc3c(NCCCN4CCOCC4)ncnc32)cc1	0%	-3%
30	Cc1ccc(NC(=O)Cn2nc(C(=O)O)c3ccccc3c2=O)cc1S(=O)(=O)N1CCCCC1	-3%	6%
31	O=C(Nc1ccccc1)Nc1ccccc1NS(=O)(=O)c1cccs1	-4%	-16%
32	O=C1c2ccccc2NC2(CCCC2)N1NS(=O)(=O)c1ccccc1	-5%	26%
33	O=C(Sc1ccccc1)c1cccc(Cn2cc(C(F)(F)F)ccc2=O)c1	-3%	18µM*
34	CC(=O)Oc1cc(C)cc2oc(=O)cc(-c3ccccc3)c12	-2%	-7%
35	O=C(NNC(=O)C12CC3CC(CC(C3)C1)C2)c1cnccn1	-5%	u
36	CC(C)OCCCNC(=O)c1ccc(CS(=O)(=O)c2cccc(C(F)(F)F)c2)o1	-8%	-15%
37	COc1ccc(C)cc1NC(=O)C1CCN(S(=O)(=O)c2c(C)noc2/C=C/c2ccco2)CC1	-3%	-15%
38	CC1CCCC(C)N1C(=O)CN1C(=O)NC2(CCOc3ccccc32)C1=O (stereo unspecified)	u	14%
39	N#Cc1ccccc1NC(=O)CN1CCN(Cc2ccccc2)CC1	-4%	1%
40	CCN1C(=O)C(=O)N(CC(=O)NC(C)CCc2ccccc2)C1=O (stereo unspecified)	-8%	-1%
41	CCN(CC(=O)Nc1c(F)cccc1F)C(=O)c1cnccn1	-3%	0%
42	CCCCS(=O)(=O)c1sc2nc(C)cc(C)c2c1N	-2%	-28%
43	C=CCNc1nc(Nc2ccc([N+](=O)[O-])cc2)nc(OC)n1	-8%	-3%
44	COc1ccc(S(=O)(=O)N2CCCCCC2)cc1C(=O)Nc1cccc(C)n1	2%	-88%
45	Cc1cccc(NC(=O)CSc2nnc(C)c(=O)n2N)c1C	1%	-7%
46	CS(=O)(=O)NCCCc1ccccc1	0%	4%
47	O=C(CCNS(=O)(=O)c1ccccc1F)OCc1ccccc1Cl	-2%	-32%
48	CC1(c2ccccc2)NC(=O)N(CC(=O)NC(=O)NC2CCCC2)C1=O (stereo unspecified)	-4%	1%
49	CC1CCCC/C1=N\NC(=S)Nc1ccccc1 (stereo unspecified)	-1%	0%
50	COc1ccc(/C(O)=C2/C(=O)C(=O)N(CCN3CCOCC3)C2c2cccnc2)cc1OC (stereo unspecified)	-9%	0%

17 structures from above, sorted by heavy-atom count, falling.
No.	mol	KAT2A inh	DT40 TDP1 CPT
26	COc1ccc(OC)c(CNC(=O)C2CCCN(c3ncnc4onc(-c5ccc(F)cc5)c34)C2)c1 (stereo unspecified)	3%	4%
9	Cc1ccc(C(c2c(C)n(C)n(-c3ccccc3)c2=O)c2c(C)n(C)n(-c3ccccc3)c2=O)s1	0%	-16%
30	Cc1ccc(NC(=O)Cn2nc(C(=O)O)c3ccccc3c2=O)cc1S(=O)(=O)N1CCCCC1	-3%	6%
2	COc1ccc(C(CNC(=O)c2cccc(S(=O)(=O)NCc3ccccc3)c2)N(C)C)cc1 (stereo unspecified)	-2%	u
21	CCCCn1c(N)c(N(CC(C)C)C(=O)CCNC(=O)c2ccc(Cl)cc2)c(=O)[nH]c1=O	-3%	3%
22	C=CCn1c(CCNC(=O)c2cccs2)nnc1SCC(=O)c1cccc([N+](=O)[O-])c1	-10%	-5%
36	CC(C)OCCCNC(=O)c1ccc(CS(=O)(=O)c2cccc(C(F)(F)F)c2)o1	-8%	-15%
44	COc1ccc(S(=O)(=O)N2CCCCCC2)cc1C(=O)Nc1cccc(C)n1	2%	-88%
38	CC1CCCC(C)N1C(=O)CN1C(=O)NC2(CCOc3ccccc32)C1=O (stereo unspecified)	u	14%
29	Fc1ccc(-n2ncc3c(NCCCN4CCOCC4)ncnc32)cc1	0%	-3%
1	c1ccc(-c2nc(NCCCn3ccnc3)c3ccccc3n2)cc1	-1%	1%
6	O=C(Nc1cc2c3c(c1)CC(=O)N3CCC2)c1c(F)cccc1F	-1%	-1%
34	CC(=O)Oc1cc(C)cc2oc(=O)cc(-c3ccccc3)c12	-2%	-7%
27	O=C1Nc2ccccc2N(O)N1c1ccc(Cl)c(Cl)c1	-4%	2%
3	Cc1cccc(N=Cc2c(O)cc(C)oc2=O)c1	-3%	-5%
25	Cc1cccc(N2C(=N)SCC2=O)c1C	-4%	-22%
46	CS(=O)(=O)NCCCc1ccccc1	0%	4%

Next section:
No.	mol	KAT2A inh	DT40 TDP1 CPT
51	COc1ccc(/C(N)=N/OC(=O)CCCc2ccccc2)cc1	-4%	4%
52	CCCCN(C(=O)NC(=O)Nc1cc(C)ccc1C)S(C)(=O)=O	-4%	-10%
53	CCC(C)NC(=O)c1cc2c(=O)n3ccccc3nc2s1 (stereo unspecified)	u	-14%
54	Cc1c(C(=O)NCc2ccccc2)oc2ccc(S(=O)(=O)N3CCC(C)CC3)cc12	0%	9.2µM*
55	Cc1ccc(CNC(=O)CCS(=O)(=O)c2cc(Br)cc3c2N(C(=O)C2CC2)CC3)o1	-2%	-4%
56	COc1ccc(NC(=O)C2CCCN2C(=O)OC(C)(C)C)cc1 (stereo unspecified)	-13%	-6%
57	COc1ccc(CNC(=O)Cn2c(=O)oc3ccccc32)cc1OC	-6%	-28%
58	C(=N\Nc1nc2ccccc2[nH]1)/c1ccc2c(c1)OCO2	-7%	u
59	O=C(CCNS(=O)(=O)c1ccccc1Cl)N1CCN(c2ccccn2)CC1	-1%	-5%
60	CC(=O)NCCNC(=O)c1oc2ccccc2c1CSc1ncn[nH]1	-2%	4%
61	CN(C)CCNC(=O)Cn1ccc2cc(S(=O)(=O)N3CCCCC3)ccc21	0%	2%
62	COc1ccccc1NC(=S)NCc1cccs1	3%	2%
63	CC(CO)Nc1nc(SCc2ccccc2)nc2sc3c(c12)CCC3 (stereo unspecified)	-20%	-13%
64	O=S(=O)(NCc1cccnc1)c1ccc(Cl)c2ccccc12	-16%	u
65	COC(=O)c1ccc(N2CCS(=O)(=O)CC2)cc1	1%	-17%
66	Cc1ccc(S(=O)(=O)Nc2nnc(CC(C)(C)C)s2)cc1	-1%	-8%
67	CCCc1[nH]nc2c1C(c1c(C)nn(-c3ccccc3)c1Cl)C(C#N)=C(N)O2 (stereo unspecified)	-3%	11µM*
68	COc1ccc2oc(=O)c(C(=O)Nc3cccc(C)c3)cc2c1	-8%	u
69	O=C(Nc1ccc2c(c1)C(=O)NC2=O)c1cccc(Cl)c1	-5%	0%
70	O=c1c2cnn(-c3ccccc3)c2ncn1Cc1ccccn1	0%	-9%
71	COc1ccc(/C=C/C(=O)c2c(O)ccc3c(C)cc(=O)oc23)cc1	25%	u
72	CCCCNC(=O)CSc1nnc(Cc2ccccc2)n1CC	-1%	8%
73	O=C(Cc1ccccc1)Nc1ccc(S(=O)(=O)N2CCOCC2)cc1	-5%	-5%
74	COc1ccc(CCNC(=O)C23CCC(C)(C(=O)C2=O)C3(C)C)cc1OC (stereo unspecified)	18%	-3%
75	CCN(CC)C(=O)C[n+]1cccc(/C=N/O)c1	0%	16%

The listing continues:
no. | molecule | KAT2A inh | DT40 TDP1 CPT
76 | O=C(NC1CC1)C(=O)c1c(-c2ccccc2)[nH]c2ccccc12 | 0% | -18%
77 | Cn1c(=O)c2c(nc(CN3CCC(C(N)=O)CC3)n2Cc2ccccc2F)n(C)c1=O | 2% | -6%
78 | CCOC(=O)CN1C(=O)C(=O)N(Cc2c(C)cc(C)cc2C)C1=O | -15% | 5%
79 | COc1cccc(NC(=O)CSc2cc(=O)n(C)c3ccc(Cl)cc23)c1 | -2% | 23µM*
80 | Cc1csc(N(C(=O)c2cccc(S(=O)(=O)N3CCCC3)c2)c2ccccc2)n1 | -4% | 21µM*
81 | COc1ccc(NC(=O)CSc2nncc3ccccc23)cc1 | -2% | 2%
82 | COCC(=O)N/N=C(\C)CC(=O)NCc1ccco1 | -9% | -5%
83 | COc1ccc(-n2c(=O)c3c4c(sc3n(CC(N)=O)c2=O)CCCCC4)cc1 | -4% | -11%
84 | CCCCNC(=O)CCc1c(C)nc2c(c(C)nn2-c2ccccc2)c1C | -6%&-9% | 18µM*
85 | CC(Sc1ccccc1)C(=O)NN=C1CCCCCC1 (stereo unspecified) | 0% | -9%
86 | Cc1cc(Br)ccc1NC(=O)CN(C)C(=O)CSCc1ccccc1 | -1% | -13%
87 | COc1ccc(NC(=O)CSc2nnc(C)n2C2CCCCC2)cc1 | 1% | -20%
88 | O=C(COc1ccc(S(=O)(=O)N2CCCC2)cc1Cl)Nc1ccc2c(c1)OCO2 | -7% | 7%
89 | Nc1nnnn1N=C1CCCCC1 | -1% | -18%
90 | Cc1ccc(NC(=O)C(=O)N2CCCC2)cc1Cl | 1% | 0%
91 | COc1cc2c(cc1OC)C(NC(=O)C(F)(F)F)CNC2=O (stereo unspecified) | 0% | u
92 | Cc1cnc(C(=O)OCC(=O)Nc2ccc(C)c(S(=O)(=O)N3CCCCCC3)c2)cn1 | -5% | 5%
93 | COc1ccc(C(=O)CSC2=NS(=O)(=O)c3cc(Cl)ccc3N2)cc1 | -3% | u
94 | Cc1noc(C)c1S(=O)(=O)N1CCCC(C(=O)Nc2nccs2)C1 (stereo unspecified) | -9% | -12%
95 | Cc1cc(=O)oc2cc(OCC(=O)OCC(=O)N(C)C3CCS(=O)(=O)C3)ccc12 (stereo unspecified) | -14% | -1%
96 | Cc1ccccc1CNC(=O)c1oc2c(c1C)-c1[nH]ncc1CC2 | -8% | u
97 | Cc1nc2sc(C(c3ccccc3)N3CCN(C(=O)c4ccco4)CC3)c(O)n2n1 (stereo unspecified) | -1% | -2%
98 | COc1ccc(NS(=O)(=O)c2cc(NC(=O)CC(=O)c3ccc([N+](=O)[O-])cc3)ccc2C)cc1 | 20% | u
99 | O=C(Cn1ccc2cc(S(=O)(=O)N3CCCC3)ccc21)NCc1ccccc1Cl | -5% | -3%
100 | COc1ccc(/C=N/n2c(C)cc(C)c(C(N)=O)c2=O)cc1 | -9% | -22%
